Screens deposited in PubChem by several laboratories.
PABP polyA inh: PABP-poly(A) binding inhibition | 290,000 tested, 1% active | PABP-poly(A) RNA binding, fluorescence polarization | inhibition, % at 35 µM | AID 2014 | P11940;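 active means 50% or more with normal probe brightness, or confirmed in later tests; about a fifth of its hits are not listed in these tables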;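 further: calls also rest on retests at 20 µM and on dose response follow-up; controls were probe without protein and protein plus probe with vehicle; some compounds called inactive have numbers as strong as hits; many hits fall short of the cut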
Yeast UUG start: modulators of start codon recognition fidelity in yeast. activity score, % at 18.7 µM. AID 602363. S. cerevisiae UUG-firefly luciferase reporter, luminescence/redox ratio. 350,000 tested, 0.13% active;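 active means replicate mean at a twofold rise or more, about +100% in these data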;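 further: firefly luciferase made from a UUG start codon reports start codon fidelity; reporter light over untreated wells divided by growth signal over untreated wells; some hits fall short of that in this replicate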
HIV Env fusion: HIV envelope-mediated fusion inhibition; 360,000 tested, 1.1% active; inhibition, % at 12.3 µM; HeLa-JRFL Env/CEM21 cell fusion, luciferase;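 active means mean replicate inhibition score of at least 50 and every replicate individually at or above 50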;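 further: 0% = plate neutral controls and 100% = maraviroc near 300 nM; one replicate is shown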
eIF4H inh: inhibitors of RNA binding by human eIF4H. Q15056. eIF4H fluorescence polarization binding assay. inhibition, % at 35 µM. 290,000 tested, 0.94% active. AID 2012;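 active means 50% or more with normal probe brightness, or confirmed in later tests; about a fifth of its hits are not listed in these tables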;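 further: calls also rest on retests at 20 µM and on dose response follow-up; 0% = protein and probe with vehicle and 100% = probe without protein; strong numbers were not always called active; many hits fall short of the cut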
CSC inhib: cancer stem cell inhibition. cancer stem cell-like cells viability, luminescence. inhibition, % at 7.5 µM. 300,000 tested, 1.1% active. AID 2717;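 active means mean at 75% or more and at least half the replicates too; tested in HMLE shEcad cells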;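 further: 0% = median of negative and 100% = median of positive control wells; the first replicate is given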
MT1-MMP act inh: MT1-MMP (human) activation inhibition | GFP/RFP ratio change, % at 20 µM | AID 651647 | P50281 | 360,000 tested, 0.061% active | HT1080 RFP-PRO-GFP cells, GFP/RFP ratio fluorescence, overnight; percent of plate control window, DMSO zero;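 active means GFP/RFP ratio change of at least 30% with cell ATP level not reduced by more than half and red fluorescence within 50% of control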; further: strong numbers were not always called active
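Assay system – RFP-PRO-GFP reporter HT1080 cells · Compound dosing – single dose of 20 µM compound, 1% DMSO final · Incubation – overnight compound exposure at 37 °C · Measure – GFP/RFP fluorescence ratio · Benchmarks – DMSO wells and RFP-L50D-GFP cells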
Rce1 inh: yeast Ras-converting enzyme inhibition; yeast membranes, quenched prenylated peptide cleavage fluorescence; calls only; 290,000 tested, 0.27% active;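 active means fall in fluorescence gain of 50% or more versus controls, with final raw signal at or below 3038400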;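 further: plate controls were neutral control wells for no effect and wells lacking membranes for full effect; tested at 10 µM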
Target sequence (Q03530 whole entry, looked up): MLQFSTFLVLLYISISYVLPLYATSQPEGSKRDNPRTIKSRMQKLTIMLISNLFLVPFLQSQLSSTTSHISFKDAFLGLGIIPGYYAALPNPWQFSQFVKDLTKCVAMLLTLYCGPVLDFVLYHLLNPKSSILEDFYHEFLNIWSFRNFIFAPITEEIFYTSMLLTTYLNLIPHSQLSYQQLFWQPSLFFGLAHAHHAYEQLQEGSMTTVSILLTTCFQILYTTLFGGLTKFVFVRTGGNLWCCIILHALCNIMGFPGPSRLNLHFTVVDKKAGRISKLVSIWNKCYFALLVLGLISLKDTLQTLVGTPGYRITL
MT1-MMP act inh RFP: recorded beside MT1-MMP act inh, whose call it bears; RFP signal change, %; measured here: RFP expression control read;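 0 = vehicle wells; hits needed this value within 50% of zero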
Starred values were filed as active, the others as inactive; i = inactive; x = no result given; & = joins results of further samples.

SMILES	PABP polyA inh	Yeast UUG start	HIV Env fusion	eIF4H inh	CSC inhib	MT1-MMP act inh	MT1-MMP act inh RFP	Rce1 inh
CCOC(=O)c1c(NC(=S)NC(=O)c2ccc(Cn3cc(Cl)cn3)o2)sc2c1CCC(C)C2 (stereo not given)	3	-3	-27	-9	x	-10	-2	x
O=C(O)C1CC=CCC1C(=O)Nc1ccccc1 (stereo not given)	0	-5	-37	28	-14	5	7	i
O=C(NC1CCCN(Cc2ccc(Cl)cc2)C1)c1cnc2ccccn2c1=O (stereo not given)	-5	-15	-45	-1	11	5	-2	i
CC(=O)N1CCCC(C)(C(=O)Nc2ccc3oc(C)nc3c2)C1 (stereo not given)	x	-8	-13	x	x	2	6	x
COc1ccc2c(C)cc3nncn3c2c1	15	x	-1	2	-4	3	1	i
COC(=O)c1ccccc1NC(=O)Nc1cc(C(C)(C)C)on1	6	-1	-62	6	18	-3	5	i
O=C(Nc1ccc(C(F)(F)F)cc1)N1CCN(c2ccnc3cc(Cl)ccc23)CC1	-6	-14	16	3	89*	4	-16	i
O=C(c1ccc2ccccc2c1)N1CCN(S(=O)(=O)/C=C/c2ccccc2)CC1	-6	9	1	-6	-13	1	-5	i
CC(=O)c1ccc(S(=O)(=O)Nc2ccc(C(=O)NC3CC3)cc2)cc1	x	-28	-4	x	x	4	-1	x
COC(=O)/C=c1/s/c(=C(/C#N)C(=O)NCc2ccccc2)n(-c2ccccc2)c1=O	82*	-15	-22	111*	5	11	40	i
CC1CCN(C(=O)CSc2nnc3c(n2)[nH]c2ccc(F)cc23)CC1	13	-13	7	0	-14	-1	-11	i
COC(=O)c1ccc2nc(-c3ccc(OC)c(OC)c3)c(CC3CCCCC3)n2c1	x	-17	-43	x	x	-1	1	x
CN(C)c1cccc(C(=O)NNC(=O)NC2CCCCC2)c1	5	x	-11	-4	-13	-4	4	i
c1ccc(Nc2nc(-c3cccs3)cs2)nc1	-6	-42	x	-7	-16	-4	-12	i
O=C(CSc1nc2ccccc2o1)N1CCOCC1	-6	-1	-6	-1	7	-4	-3	i
CCC(C)NCC(=O)Nc1cc(S(=O)(=O)N(CC)c2ccccc2)ccc1Cl (stereo not given)	-1	x	2	6	1	-6	-7	i
COc1ccc(N=C2SC(C(=O)Nc3ccc(OC)cc3)CC(=O)N2CCN2CCOCC2)cc1 (stereo not given)	-5	-5	2	1	0	-9	-3	i
CC(C)c1nc(NCCO)c2nnn(Cc3ccccc3)c2n1	-2	x	9	-5	-2	3	4	i
CC1(C)Cc2ccccc2-c2nnc(SCc3ccccc3)n21	-14	-8	x	1	13	-1	-6	i
Cc1ccc(NC(=O)Cn2nnc(C(=O)NCc3ccco3)c2N)cc1	6	-49	i	-8	-10	1	1	i
CSc1sc(C(=O)NN)c2c1C(O)CCC2 (stereo not given)	x	-10	-8	x	-1	0	2	i
N#CC(C(=O)Nc1ccccc1)=C1CCCCC1	2	-4	-121	-5	-7	-3	-4	i
Cc1cc(C)c(C)c(S(=O)(=O)N2CCN(C(=O)c3ccncc3)CC2)c1C	x	-3	-35	x	x	-2	4	x
N#C/C(=C\c1cccn1S(=O)(=O)c1ccccc1)S(=O)(=O)c1ccc(F)cc1	x	-2	6	x	x	0	2	x
COc1cccc(-c2cnc3c(NC(C)=O)cc(-c4ccc(C(=O)NC5CC5)cc4)cn23)c1	x	-3	-13	x	x	4	5	x
COC(=O)CCN(Cc1ccccc1)S(=O)(=O)c1ccccc1Br	x	-11	17	x	x	2	6	x
Cc1ccc(Cl)cc1NC(=O)CN1CCN(C(=O)C2CCCO2)CC1 (stereo not given)	1	-7	14	-17	-2	4	6	i
O=C(NCCCn1ccnc1)C1CC(c2cccc(Br)c2)=NO1 (stereo not given)	5	-16	x	2	10	-4	-1	i
C[C@@H]1CN([C@H](C)CO)C(=O)CCCn2nncc2CO[C@H]1CN(C)Cc1ccccc1C(F)(F)F	x	-10&-6	4	x	x	-5	2	x
Cc1ccc(S(=O)(=O)N2CCOCC2)cc1NC(=O)COC(=O)c1cc(=O)[nH]c2ccccc12	-4	-1	-3	-3	-13	-1	0	i
COc1ccc(-c2cc(C(F)(F)F)n3nc(C(=O)N4CCN5CCCC5C4)cc3n2)cc1OC (stereo not given)	-4	-19	-9	2	4	-4	1	i
CC(=O)c1ccc(N2CCN(CC(=O)N(CC(C)C)c3c(N)n(CC(C)C)c(=O)[nH]c3=O)CC2)cc1	-6	x	5	-3	9	-3	5	i
Cc1ccccc1NC(=O)NC1(C(=O)N2CCOCC2)CCCCC1	8	-16	6	6	-1	-2	0	i
Cc1[nH]c2ccccc2c1/C=N/NC(=S)NC(C)C	-14	x	-1	-12	1	0	-6	i
O=C(/C=C(O)/C=C/c1ccc(O)cc1)/C=C/c1ccc(O)cc1	x	-12	37	x	44	-10	2	x
CCCC1=C(C(=O)OCC)C(c2ccc(F)cc2)n2ncnc2N1 (stereo not given)	5	-16	x	-4	-9	2	0	i
Cc1cc(C)c2[nH]c(=O)c(CN(CC3CCCO3)S(=O)(=O)c3ccc4c(c3)OCCO4)cc2c1 (stereo not given)	-3	-6	-56	6	14	-4	-2	i
CN(C)c1ccc(N=Nc2ccccc2C(=O)OCC(=O)N(C)c2ccccc2)cc1	-10	x	-20	-9	19	14	-1	i
O=C(c1ccc2ncsc2c1)N1CCN(c2ccccc2Cl)CC1	1	-18	-1	-7	3	3	-5	i
CCOC(=O)[C@H]1[C@H]2COc3ccc(OC)cc3[C@@H]2N2C(=O)c3cc(OC)ccc3NC(=O)[C@@]12C	x	-3	-104	x	-19	-1	0	x

Two entries from above, as labelled records.
C[C@@H]1CN([C@H](C)CO)C(=O)CCCn2nncc2CO[C@H]1CN(C)Cc1ccccc1C(F)(F)F
  PABP polyA inh: x	Yeast UUG start: -10&-6	HIV Env fusion: 4	eIF4H inh: x	CSC inhib: x	MT1-MMP act inh: -5	MT1-MMP act inh RFP: 2	Rce1 inh: x

CC(=O)c1ccc(N2CCN(CC(=O)N(CC(C)C)c3c(N)n(CC(C)C)c(=O)[nH]c3=O)CC2)cc1
  PABP polyA inh: -6	Yeast UUG start: x	HIV Env fusion: 5	eIF4H inh: -3	CSC inhib: 9	MT1-MMP act inh: -3	MT1-MMP act inh RFP: 5	Rce1 inh: i

Additional results follow:
SMILES	PABP polyA inh	Yeast UUG start	HIV Env fusion	eIF4H inh	CSC inhib	MT1-MMP act inh	MT1-MMP act inh RFP	Rce1 inh
COc1cccc(NC(=O)c2nn(C)c3c2CS(=O)(=O)c2ccccc2-3)c1	23	-5	8	-4	10	3	8	i
CN(C)CCCNC(=O)c1cccc(-c2ccc3nncn3c2)c1	x	-20	-17	x	x	3	4	x
C#CCCCCCCCCC(=O)NCCCC	-8	x	10	2	-6	7	7	i
Cc1ccc(NC(=O)c2nc[nH]c2C(=O)NCCCNC(=O)c2[nH]cnc2C(=O)Nc2ccc(C)cc2)cc1	x	-1	x	x	113*	-3	-2	x
COc1ccc(N(C(=O)c2cccnc2)S(=O)(=O)c2ccc3c(c2)n(C)c(=O)n3C)cc1	11	x	x	0	-1	9	6	i
O=C(NC(=S)Nc1ccccc1C(=O)O)c1cncc(Br)c1	10	-5	-7	-15	3	-2	2	i
CCOC(=O)c1cccc(NC(=O)CSc2nc3ccccc3c(=O)n2CC)c1	-2	-4	6	-2	-1	0	-3	i
Cc1ccc(-c2csc3ncn(Cc4ccc(C(=O)O)cc4)c(=O)c23)cc1C	6	-19	3	2	-6	8	6	i
COc1ccc(C(=O)NCC(=O)NCC(=O)OCc2ccc(Br)cc2)cc1	-6	-8	5	4	-4	3	4	i
CC(=O)N1c2ccc(S(=O)(=O)NCCC(=O)NCCc3cccc(C)c3)cc2CC1C (stereo not given)	4	-11	3	-13	-7	3	-6	i
NC(c1csc(NC(=O)Nc2ccccc2Oc2ccccc2)n1)c1ccccc1Cl (stereo not given)	x	-11	0	x	x	-4	-9	x
NC(=O)c1ccccc1OCC(=O)Nc1ccc2c(c1)CCC2	x	1	-21	x	x	-2	-6	x
O=C(Nc1cnc2ccccc2c1)c1cccc(-n2cnnn2)c1	-2	-11	-19	1	-17	-2	2	i
Cc1ccc(-c2csc(NC(=O)Cc3cccs3)n2)cc1C	-1	-25	x	-11	-2	-10	-8	i
COc1ccccc1C(=O)CSc1nccn1C	-1	-21	-8	-3	x	1	-1	i
COCCNC(=O)C1(C)Cc2c(-c3ccc(NC(C)=O)cc3)ccnc2O1 (stereo not given)	x	-19	-9	x	x	-1	0	x
CCCCN(C(=O)C1=COCCO1)c1c(N)n(CCC)c(=O)[nH]c1=O	x	2	0	x	-5	-2	2	i
O=C(NC1CCCCCC1)C1c2ccccc2C(=O)N1CCCN1CCOCC1 (stereo not given)	-8	-20	-4	-9	-9	0	3	i
C/C(=N/NS(=O)(=O)c1ccc(C)cc1C)c1ccc2c(c1)OCO2	-1	-18	-14	-1	3	1	5	i
Cc1ccc2c(c1)/C(=C/c1ccc(F)cc1)C(=O)N2	11	-11	-21	-9	54	-4	-8	i
CCOC(=O)c1c(N)sc(C(O)(C(F)(F)F)C(F)(F)F)c1-c1ccc(F)cc1	3	3	-23	9	43	2	2	i
Cc1cccc(-n2cc(C#N)c(=O)[nH]c2=O)n1	2	x	16	5	-6	1	1	i
Cc1ccc(NC(=S)NNC(=O)c2nnn(-c3ccccc3)c2C)cc1	4	x	x	11	-4	-2	2	i
CCC(=O)c1ccc(OCc2ccccc2)c(OC)c1	-10	x	x	-3	x	-1	1	i
COc1ccc(OCC(=O)Nc2nnc(C)s2)cc1	11	-5	x	0	2	-4	4	i
COc1ccc(C(=O)Nc2ccc(C(=O)NCC3CCCO3)cc2)c(OC)c1OC (stereo not given)	-2	-5	4	-1	-15	0	1	i
Cc1cc(Nc2ccc(O)cc2)n2c(nc3ccccc32)c1C#N	-7	x	-4	2	2	-6	-7	i
O=C(NCc1ccc2c(c1)OCO2)C1CCCN(S(=O)(=O)c2cccs2)C1 (stereo not given)	-4	-5	-7	-7	0	-1	-3	i
Cc1ccccc1-n1ccnc1SCC(=O)NCC1CCCO1 (stereo not given)	-4	-17	2	-7	-9	-1	3	i
O=C(CCC1CCCN(C(=O)c2ccoc2)C1)NCc1ccccc1F (stereo not given)	-3	-10	9	-1	-23	-2	1	i
Cn1c(SC2CCCCC2=O)nnc1-c1ccccc1F (stereo not given)	14	-5	1	-5	6	-7	-1	i
Cc1cnn(C(=O)c2oc3ccccc3c2C)c1	5	x	x	-8	26	2	3	i
CC(=O)Oc1ccccc1Cn1c(C)c(C(=O)NCc2ccc(Cl)c(Cl)c2)sc1=O	x	-7	-5	x	x	5	-7	x
CC1CN(C)CCC1OC(=O)c1ccccc1 (stereo not given)	2	-17	3	-6	-7	2	4	i
COCCN1C(=O)N[C@@H](c2cccs2)C(C(C)=O)=C1C	x	-13	-17	x	-3	2	2	i
COc1ccc(NC(=O)c2sc3nc(Cc4ccccc4)cc(C(F)(F)F)c3c2N)cc1OC	-3	x	8	2	-37	-6	-5	i
O=C(Nc1cccc(Cl)c1)N(Cc1nc2ccccc2c(=O)[nH]1)Cc1cccs1	4	-4	x	-8	x	-16	-18	i
Fc1ccc(-c2nnc(CSc3nnc4ccccn34)o2)cc1	-2	x	-7	0	5	-1	2	i
O=C(Nc1nnc(-c2ccc(Br)cc2)o1)C1=COCCO1	x	-21	-9	x	1	3	2	i
COc1ccc(-n2nc(C(=O)O)c3ccccc3c2=O)c(OC)c1	6	-21	x	-4	-6	5	8	i
CNC(=O)CSc1cn(CC(=O)N(C(C)C)C(C)C)c2ccccc12	1	-11	-18	-5	-8	0	3	i
CC(C)n1cc(NC(=O)C2CC(c3cccc(Br)c3)=NO2)cn1 (stereo not given)	2	0	-4	-10	11	2	5	i
C=CCn1cc(C(=O)NCCCN(CC)CC)c(=O)c2cc(S(=O)(=O)N3CCC(C)CC3)ccc21	11	-4	-6	7	-1	-6	1	i
Cc1ccc(C(=O)OCC(=O)NCc2ccco2)cc1	6	-10	-46	-1	-13	9	8	i
